PD-1 reversal: activators reversing PD-1 mediated T-cell inhibition. primary human CD4 T cells, PD-L1 beads, CellTiter-Glo 96 h. activation, % (concentration not given with the values). 29,000 tested, under 10 active;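 active = replicate mean of 50% or more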;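 also: 0% = median vehicle wells and 100% = positive control; 100 nL library stock added to about 50 µL; numbers are from one replicate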
YB-1 expr inh: YB-1 expression inhibition; U2OS, qRT-PCR YB-1 vs CDIP delta delta Cp, 16 h; stronger effect = higher value; zero = DMSO, each unit about twofold; 30,000 tested, 0.37% active; delta delta Cp (YB-1 minus CDIP) (test concentration not listed);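 active = delta delta Cp rounded down to an integer at or above 3, about 3 SD of DMSO wells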;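 also: higher means less YB-1 transcript or more CDIP transcript relative to DMSO; stock transfer was 100 nL into about 100 µL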
Hedgehog inh: Sonic Hedgehog pathway inhibition; Shh-LIGHT2 Gli-luciferase reporter, 30 h; inhibition, % (test concentration not listed); 22,000 tested, 2.1% active; AID 2313;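 active = replicate mean of 65% or more; inconclusive = mean lower but half the replicates past it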;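 also: pathway switched on by Shh-conditioned medium diluted 1 in 25 in low serum; 100 nL library stock added to about 40 µL; 0% = median of neutral wells and 100% = positive control level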
MITF inhib: MITF inhibition | AID 2240 | TRPM1 promoter luciferase, luminescence, 24 h | inhibition, % (concentration not given with the values) | 37,000 tested, 0.28% active;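 active = most replicates at 85% or more, or half of them and the mean; inconclusive = half reach 85% but not the mean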;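 also: human melanocyte line stably carrying TRPM1 promoter luciferase reporter; 0% = vehicle wells and 100% = a positive control; the first replicate is given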
* = called active by the depositor; ? = inconclusive; nt = no result given. These rows are one share of the data; count on the stated rates, not on these rows.

Each structure is followed by: PD-1 reversal	YB-1 expr inh	Hedgehog inh	MITF inhib
1) C[C@@H]1CCCCO[C@H](CN(C)C(=O)Nc2ccc3c(c2)OCO3)[C@@H](C)CN([C@H](C)CO)C(=O)c2cc(NC(=O)Cc3ccccc3)ccc2O1
  -0.5	0.056	-22	-10
2) C[C@H](CO)N1C[C@H](C)[C@H](CN(C)C(=O)Nc2ccc(F)cc2)Oc2ccc(NS(=O)(=O)c3cn(C)cn3)cc2C1=O
  -1.0	0.3	nt	-2
3) COc1ccc(OCC(=O)Nc2ccc3oc(-c4cccc(Br)c4)nc3c2)cc1
  2.2	nt	nt	-73
4) C[C@@H]1CN([C@H](C)CO)C(=O)c2cc(NC(=O)CCC(F)(F)F)ccc2O[C@@H]1CN(C)Cc1ccc(Oc2ccccc2)cc1
  nt	0.32	23	2
5) O=S(=O)(/N=S1/CCC2(C1)OCCO2)c1cc(C(F)(F)F)cc(C(F)(F)F)c1 (configuration not stated)
  0.5	-0.18	13	-12
6) C[C@H]1CN([C@@H](C)CO)C(=O)c2cccc(NS(=O)(=O)c3ccccc3)c2O[C@H]1CN(C)CC1CCCCC1
  2.5	0.41	-14	1
7) CSc1sc(=S)sc1SC
  0.8	0.3	nt	-24
8) c1ccc2c(c1)[nH]c1nc(SCCN3CCCCC3)nnc12
  0.0	nt	nt	-13
9) Cc1noc(C)c1NC(=O)Nc1ccc2c(c1)C(=O)N([C@H](C)CO)C[C@H](C)[C@H](CN(C)Cc1ccc(Cl)c(Cl)c1)OCCCC[C@@H](C)O2
  -1.5	-0.37	0	10
10) COc1ccc(NC(=O)Nc2cccc3c2O[C@@H](CN(C)CC2CCCCC2)[C@@H](C)CN([C@H](C)CO)C3=O)cc1
  -1.9	-0.54	20	-13

Each structure is followed by: PD-1 reversal	YB-1 expr inh	Hedgehog inh	MITF inhib
11) Cc1ccc(Cn2nc(C)cc2C(=O)Nc2ccc(C)cc2)cc1
  -0.3	0.069	-23	-57
12) C[C@H](CO)N1C[C@H](C)[C@H](CN(C)CC2CCCCC2)Oc2ccc(NC(=O)C3CCCCC3)cc2C1=O
  -2.8	-1.9	21	-10
13) C[C@@H]1CN([C@H](C)CO)C(=O)c2cc(NC(=O)Cc3ccccc3)ccc2O[C@@H]1CN(C)Cc1ccc(C(F)(F)F)cc1
  0.0	0.13	-8	28
14) Cc1ccc(S(=O)(=O)N(C)C[C@@H]2Oc3ccc(NC(=O)C4CC4)cc3CC(=O)N([C@H](C)CO)C[C@@H]2C)cc1
  1.4	-0.24	14	0
15) Cc1ccc(S(=O)(=O)N(C)C[C@H]2Oc3ccc(NS(=O)(=O)c4ccc(F)cc4)cc3CC(=O)N([C@@H](C)CO)C[C@@H]2C)cc1
  1.7	0.14	29	-12
16) C[C@H](CO)N1C[C@H](C)[C@H](CN(C)S(=O)(=O)c2cn(C)cn2)Oc2ccc(NC(=O)Nc3ccc(C(F)(F)F)cc3)cc2C1=O
  -1.0	0.17	nt	-18
17) O=c1cc(CSc2n[nH]c(=O)n2-c2ccccc2)c2ccc(O)cc2o1
  -0.7	-0.16	-11	0
18) Cc1ccc(S(=O)(=O)Nc2cccc3c2O[C@@H](CN(C)S(=O)(=O)c2ccccc2)[C@H](C)CN([C@H](C)CO)C3=O)cc1
  -0.5	0.19	17	0
19) CN1CCc2cc3c(cc2C2OC(O)c4c(ccc5c4OCO5)C21)OCO3 (configuration not stated)
  1.0	0.45	-12	6
20) C[C@H]1CN([C@@H](C)CO)C(=O)c2cccc(NC(=O)CCCCCC(=O)Nc3ccccc3N)c2O[C@@H]1CN(C)Cc1ccc(-c2ccccc2)cc1
  0.0	-0.16	nt	26

Each structure is followed by: PD-1 reversal	YB-1 expr inh	Hedgehog inh	MITF inhib
21) C[C@@H]1CN([C@H](C)CO)C(=O)Cc2cc(NS(=O)(=O)c3cn(C)cn3)ccc2O[C@H]1CN(C)Cc1ccc2c(c1)OCO2
  nt	-0.13	-35	-3
22) C[C@H](CO)N1C[C@H](C)[C@H](CN(C)S(=O)(=O)c2cccs2)Oc2ccc(N(C)C)cc2CC1=O
  nt	-0.059	nt	-8
23) C[C@H]1CN([C@@H](C)CO)C(=O)c2cccc(NC(=O)c3ccncc3)c2O[C@@H]1CN(C)S(=O)(=O)c1cccs1
  -0.3	-0.83	-5	0
24) Cc1ccc(S(=O)(=O)Nc2cccc3c2O[C@@H](CN(C)S(C)(=O)=O)[C@@H](C)CN([C@@H](C)CO)C3=O)cc1
  1.5	-0.012	-31	-12
25) C[C@@H]1CN([C@H](C)CO)C(=O)c2cccc(NS(C)(=O)=O)c2O[C@@H]1CN(C)S(=O)(=O)c1ccc(Cl)cc1
  nt	-0.49	6	-5
26) O=C(O)Cc1cncc(Br)c1
  3.4	-0.28	-1	24
27) COc1ccc(S(=O)(=O)N(C)C[C@H]2Oc3c(NS(=O)(=O)c4ccc(Cl)cc4)cccc3C(=O)N([C@H](C)CO)C[C@H]2C)cc1
  0.9	0.15	-25	7
28) COc1ccc(S(=O)(=O)N(C)C[C@@H]2Oc3c(NC(=O)Nc4ccccc4)cccc3C(=O)N([C@@H](C)CO)C[C@H]2C)cc1
  1.9	-0.18	-21	-12
29) C[C@H]1CN([C@@H](C)CO)C(=O)c2cc(NS(=O)(=O)c3ccc(F)cc3)ccc2O[C@H]1CN(C)Cc1ccc2c(c1)OCO2
  -0.7	0.11	23	-2
30) COc1cc(OC)cc(C(=O)NCc2nc(-c3ccccc3)no2)c1
  0.4	nt	nt	15

Ordered by molar mass (falling): some entries from above
Each structure is followed by: PD-1 reversal	YB-1 expr inh	Hedgehog inh	MITF inhib
24) Cc1ccc(S(=O)(=O)Nc2cccc3c2O[C@@H](CN(C)S(C)(=O)=O)[C@@H](C)CN([C@@H](C)CO)C3=O)cc1
  1.5	-0.012	-31	-12
22) C[C@H](CO)N1C[C@H](C)[C@H](CN(C)S(=O)(=O)c2cccs2)Oc2ccc(N(C)C)cc2CC1=O
  nt	-0.059	nt	-8
30) COc1cc(OC)cc(C(=O)NCc2nc(-c3ccccc3)no2)c1
  0.4	nt	nt	15

The list goes on.
Each structure is followed by: PD-1 reversal	YB-1 expr inh	Hedgehog inh	MITF inhib
31) C[C@@H]1CN([C@H](C)CO)C(=O)c2cc(NS(=O)(=O)c3cccs3)ccc2O[C@H]1CN(C)C
  nt	-0.15	nt	7
32) CC(C)NC(=O)Nc1ccc2c(c1)C(=O)N([C@@H](C)CO)C[C@H](C)[C@H](CN(C)Cc1ccc(-c3ccccc3)cc1)O2
  0.9	0.4	5	13
33) COc1ccc(S(=O)(=O)N(C)C[C@@H]2Oc3ccc(NC(=O)Cc4cn(C)c5ccccc45)cc3C(=O)N([C@@H](C)CO)C[C@H]2C)cc1
  -1.9	-0.21	nt	27
34) Cc1ncc([N+](=O)[O-])n1Cc1n[nH]c(=S)n1C
  1.5	nt	nt	-7
35) CC1(C)CC(=O)C(C=NCc2ccc(F)cc2)=C(O)C1
  0.3	0.46	-14	-3
36) Brc1ccccc1-c1nc2ccccc2c2nc3ccccc3n12
  -0.5	-0.26	0	-15
37) N#Cc1ccccc1NC(=O)CSc1ccccn1
  0.1	0.2	-24	-28
38) COC(=O)c1ccc(NCc2cc(O)ccc2O)cc1
  -14	1.2	27	4
39) C[C@@H]1CCCCO[C@H](CN(C)C(=O)CCCN(C)C)[C@@H](C)CN([C@H](C)CO)C(=O)c2cc(NC(=O)NC3CCCCC3)ccc2O1
  -0.8	-0.024	39	-12
40) CC(C)(C)c1cc(NC(=O)CSc2nnnn2-c2ccccc2)cc(C(C)(C)C)c1
  -0.4	nt	nt	13

Each structure is followed by: PD-1 reversal	YB-1 expr inh	Hedgehog inh	MITF inhib
41) C[C@H](CO)N1C[C@H](C)[C@H](CN(C)S(=O)(=O)c2cccs2)Oc2c(NC(=O)C3CC3)cccc2C1=O
  nt	-0.3	85*	-6
42) C[C@H](CO)N1C[C@H](C)[C@@H](CN(C)S(=O)(=O)c2cccs2)Oc2c(NC(=O)C3CCOCC3)cccc2C1=O
  nt	0.14	16	-9
43) C[C@H](CO)N1C[C@H](C)[C@H](CN(C)Cc2ccccc2)Oc2ccc(NC(=O)Cc3cn(C)c4ccccc34)cc2CC1=O
  nt	-0.21	9	19
44) Cc1noc(C)c1S(=O)(=O)Nc1ccc2c(c1)C(=O)N([C@H](C)CO)C[C@H](C)[C@H](CN(C)Cc1ccc(C(=O)O)cc1)OCCCC[C@@H](C)O2
  nt	-0.33	-4	-16
45) CCn1c(SCC(=O)Nc2cccc(OC)c2)nnc1-c1cccc(C)c1
  0.3	nt	nt	-23
46) C[C@H](CO)N1C[C@H](C)[C@H](CN(C)C(=O)Nc2ccccc2)Oc2c(NC(=O)Nc3ccccc3)cccc2C1=O
  -1.4	0.18	-86	12
47) C=C1C(=O)O[C@H]2[C@H]1[C@@H](OC(=O)/C(C)=C/C)C(OC(C)=O)/C(C(=O)OC)=C\CC[C@@]1(C)O[C@H]21 (some centres not stated)
  -12	-0.27	-313	45
48) Cc1noc(C)c1NC(=O)Nc1ccc2c(c1)C(=O)N([C@H](C)CO)C[C@@H](C)[C@@H](CN(C)Cc1ccccc1)O2
  2.4	-0.44	nt	-1
49) C[C@@H]1CN([C@@H](C)CO)C(=O)c2cc(N(C)C)ccc2O[C@H]1CN(C)Cc1ccc(C(=O)O)cc1
  -1.8	0.43	1	-11
50) Cc1oc(-c2ccc3c(c2)OCCO3)cc1C(=O)NCC(=O)O
  0.2	nt	nt	86*

Full records from above. Values in the order: PD-1 reversal | YB-1 expr inh | Hedgehog inh | MITF inhib
Shown for C[C@H](CO)N1C[C@H](C)[C@H](CN(C)S(=O)(=O)c2cccs2)Oc2c(NC(=O)C3CC3)cccc2C1=O → nt | -0.3 | 85* | -6
Shown for C[C@H](CO)N1C[C@H](C)[C@H](CN(C)C(=O)Nc2ccccc2)Oc2c(NC(=O)Nc3ccccc3)cccc2C1=O → -1.4 | 0.18 | -86 | 12
Shown for Cc1noc(C)c1S(=O)(=O)Nc1ccc2c(c1)C(=O)N([C@H](C)CO)C[C@H](C)[C@H](CN(C)Cc1ccc(C(=O)O)cc1)OCCCC[C@@H](C)O2 → nt | -0.33 | -4 | -16
Shown for CCn1c(SCC(=O)Nc2cccc(OC)c2)nnc1-c1cccc(C)c1 → 0.3 | nt | nt | -23
Shown for C[C@@H]1CN([C@@H](C)CO)C(=O)c2cc(N(C)C)ccc2O[C@H]1CN(C)Cc1ccc(C(=O)O)cc1 → -1.8 | 0.43 | 1 | -11

Further entries:
Each structure is followed by: PD-1 reversal	YB-1 expr inh	Hedgehog inh	MITF inhib
51) C[C@H]1CN([C@@H](C)CO)C(=O)c2cccc(NS(=O)(=O)c3cccs3)c2O[C@H]1CN(C)Cc1ccc(C(F)(F)F)cc1
  -0.8	-0.41	-7	-8
52) C[C@@H]1CN([C@H](C)CO)C(=O)Cc2cc(NC(=O)Nc3ccccc3)ccc2O[C@@H]1CN(C)S(=O)(=O)c1cccs1
  -1.2	-0.036	0	1
53) C[C@@H]1CN([C@H](C)CO)C(=O)c2cccc(NC(=O)Nc3ccc4c(c3)OCO4)c2O[C@H]1CN(C)C(=O)NC1CCCCC1
  -0.9	0.56	21	-11
54) C[C@@H]1CN([C@H](C)CO)C(=O)Cc2cc(NC(=O)Cn3cnnn3)ccc2O[C@H]1CN(C)Cc1ccc(Oc2ccccc2)cc1
  2.9	0.04	-55	0
55) C[C@H](CO)N1C[C@H](C)[C@H](CN(C)CC2CCCCC2)Oc2ccc(NC(=O)Nc3ccc4c(c3)OCO4)cc2C1=O
  nt	-0.36	nt	0
56) Cc1ccc(S(=O)(=O)Nc2ccc3c(c2)C(=O)N([C@H](C)CO)C[C@H](C)[C@@H](CN(C)C(=O)CCC(F)(F)F)OCCCC[C@@H](C)O3)cc1
  -1.7	0.12	-17	9
57) C[C@@H]1CN([C@@H](C)CO)C(=O)c2cccc(NS(=O)(=O)c3ccc(Cl)cc3)c2O[C@@H]1CN(C)C(=O)NC1CCCCC1
  -1.6	1.7	33	16
58) C[C@@H]1CN([C@H](C)CO)C(=O)Cc2cc(NC(=O)NC3CCCCC3)ccc2O[C@@H]1CN(C)Cc1ccncc1
  -1.0	-0.019	-26	-5
59) COc1cc(-c2nnn(CC(=O)O)n2)cc(OC)c1OC
  1.1	nt	nt	-13
60) C[C@H](CCC(=O)O)[C@H]1CCC2C3C(=O)CC4CC(=O)CC[C@]4(C)C3CC(=O)[C@@]21C (some centres not stated)
  nt	-0.28	-43	-15

A few values from the entries so far:
Result of cpd 56 in PD-1 reversal: -1.7
Result of cpd 53 in YB-1 expr inh: 0.56

Later entries
Each structure is followed by: PD-1 reversal	YB-1 expr inh	Hedgehog inh	MITF inhib
61) COc1ccc(S(=O)(=O)Nc2ccc3c(c2)C(=O)N([C@@H](C)CO)C[C@@H](C)[C@@H](CN(C)C(=O)Nc2ccccc2)O3)cc1
  0.0	0.46	nt	-3
62) COc1ccc(NC(=O)Nc2ccc3c(c2)C(=O)N([C@@H](C)CO)C[C@@H](C)[C@H](CN(C)C)O3)cc1
  1.4	-0.074	nt	5
63) Cc1c(N2CCCC2)cc2c(c1N)C(C)(C)CC2(C)C
  2.4	-0.074	?	-4
64) COc1ccc(NC(=O)Nc2ccc3c(c2)C(=O)N([C@@H](C)CO)C[C@H](C)[C@@H](CN(C)S(=O)(=O)c2ccc(OC)cc2)O3)cc1
  -0.6	-0.06	2	-8
65) CS(=O)(=O)N(CC(=O)Nc1ccccc1C(F)(F)F)c1ccc(Cl)c(C(F)(F)F)c1
  -0.2	nt	nt	3
